# From PubChem
# STK33 kinase inh = blocks human STK33 kinase activity | Q9BYT3 | purified STK33, MBP phosphorylation, ADP-Glo luminescence | inhibition, % at 10 µM | hit rate 0.073% among 320,000;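 active = inhibition at or above 25%, using the most active replicate where run in duplicate; inactive = inhibition below 25%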
# Target sequence (Q9BYT3 whole entry, looked up): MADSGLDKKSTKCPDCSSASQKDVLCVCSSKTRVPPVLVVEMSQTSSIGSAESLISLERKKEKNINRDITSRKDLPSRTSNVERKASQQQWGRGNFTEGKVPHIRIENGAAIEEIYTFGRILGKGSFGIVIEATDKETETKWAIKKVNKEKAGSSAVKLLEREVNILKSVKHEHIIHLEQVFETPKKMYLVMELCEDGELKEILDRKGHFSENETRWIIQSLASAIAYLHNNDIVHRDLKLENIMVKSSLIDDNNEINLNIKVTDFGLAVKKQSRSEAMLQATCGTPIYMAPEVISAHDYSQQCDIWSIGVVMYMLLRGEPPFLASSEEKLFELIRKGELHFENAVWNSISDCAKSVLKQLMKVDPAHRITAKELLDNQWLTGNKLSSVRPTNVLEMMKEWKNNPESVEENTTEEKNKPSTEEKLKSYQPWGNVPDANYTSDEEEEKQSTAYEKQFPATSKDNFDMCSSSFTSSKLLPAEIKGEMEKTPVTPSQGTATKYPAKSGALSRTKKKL
# Active calls of the source: *. Some of the compounds tested; most or all hits stand in other tables.
smiles | STK33 kinase inh
Cc1ccc(S(=O)(=O)N(C)Cc2cc3ccccc3[nH]c2=O)cc1 | -2.3
CC1(C)CC(=O)C2=C(C1)OC(/N=C/N1CCCC1)=C(C#N)C2c1ccccc1 (configuration not stated) | 0.4
CC(C)(C)C(=O)CN1C(=O)NC(C)(Cc2ccc3c(c2)OCO3)C1=O (configuration not stated) | -0.1
Cc1ccc(S(=O)(=O)N2CCOC2CNC(=O)C(=O)NCc2ccc(Cl)cc2)cc1 (configuration not stated) | -0.3
N#Cc1c(NC(=O)CSc2nc(N)cc(=O)[nH]2)sc2c1CCCCCC2 | -0.4
CCNC(=O)N1C(CC(=O)OCC)C(=O)NC2CCCCC21 (configuration not stated) | -0.3
COC(=O)c1cccc(NC(=O)CN2CCc3ccccc3C2)c1 | -2.1
CC(=O)N1CSCC1C(=O)NNS(=O)(=O)c1cccc(C(F)(F)F)c1 (configuration not stated) | 0.7
O=C(CSc1ccccc1)N1CCN(c2ccccc2)CC1 | 0.2
COc1ccc(C=O)cc1COc1ccc(C)cc1[N+](=O)[O-] | -0.1
CCC(C)(C)NC(=O)C(c1cccs1)N(CC1CCCO1)C(=O)Cn1nnc2ccccc21 (configuration not stated) | -0.3
CN1Cc2cc(C(=O)c3ccccc3O)cnc2NC1=O | 3.5
O=C(NCc1ccco1)c1ccc2ccccc2n1 | 0.0
O=C(c1cccnc1)N1CCN(CCCc2ccccc2)CC1 | 0.6
COc1cccc(NC(=O)C(C#N)Cc2ccncc2)c1 (configuration not stated) | 0.0
CCOC(=O)c1[nH]cc(-c2ccccc2)c1N1CCOCC1 | -0.3
CC(Oc1ccc(Cl)cc1Cl)C(=O)Nc1ccc(N2CCN(C)CC2)cc1 (configuration not stated) | 0.5
CCc1ccc(S(=O)(=O)n2c(C)nc3ccccc32)cc1 | -1.0
O=C(NCc1ccco1)c1cc(-c2cccs2)on1 | -2.9
O=C(Nc1nc2c(s1)CCCC2=O)c1cnccn1 | 0.9
CN(C)S(=O)(=O)c1ccc(NC(=O)CNc2cc(S(=O)(=O)N3CCCC3)ccc2OCC(F)(F)F)cc1 | 0.1
O=Cc1cn[nH]c1-c1cccc([N+](=O)[O-])c1 | 8.0
COc1ccc(S(=O)(=O)CC2(O)CCN(C(=O)C(C)(C)C)CC2)cc1 | -1.3
O=C(Cn1cnc2c(nnn2Cc2ccccc2F)c1=O)OCc1ccccc1 | -1.5
Cc1ccc(C(=O)N2CCN(C3c4cccc5cccc(c45)C3NS(=O)(=O)c3ccccc3)CC2)cc1 (configuration not stated) | 0.5
COc1ccc(OC)c(NC(=O)CCCc2ccccc2)c1 | 0.7
COc1ccccc1N(CC1CO1)S(=O)(=O)c1ccccc1 (configuration not stated) | -0.7
CCC(C)(NC(=O)Cc1c[nH]c2ccccc12)C(=O)NC1CCCCC1 (configuration not stated) | 0.2
Cc1nc2ccc(NC(=O)c3cc(S(=O)(=O)N4CCOCC4)ccc3C)cc2s1 | 0.9
N=c1n(CCOc2ccccc2)c2ccccc2n1CCN1CCOCC1 | 1.2
COC(=O)c1ccccc1NC(=O)Cc1ccccc1OC | 0.8
CCOC(=O)N1CCN(c2c(NCCCN(C)c3ccccc3)c(=O)c2=O)CC1 | 0.0
COc1ccc(CNC(=O)CCNS(=O)(=O)c2ccc3c(c2)oc(=O)n3C)cc1 | 1.0
OCCNc1c2ccccc2nc2c(F)c(F)c(F)c(F)c12 | -0.9
CC(=O)N(C)c1ccc(NC(=S)NC(=O)/C=C/c2ccco2)cc1 | 5.4
COc1ccc(C)cc1NC(=O)c1nnn(CCc2ccccc2)c1N | -0.9
c1ccc(-c2cn(C[C@H]3CC[C@@H]([C@@H]4CC[C@H](Cn5cc(-c6ccccn6)nn5)O4)O3)nn2)nc1 | -0.6
Fc1ccc(C(c2nnnn2Cc2cccs2)N2CCN(c3ccccc3)CC2)cc1 (configuration not stated) | -0.5
Cc1cccc2c1nc(-c1ccccc1)n1nnnc21 | -0.9
COc1ccc(-c2[nH]ncc2CN2CCN(C(=O)c3cccs3)CC2)c(F)c1 | -3.0
O=c1oc2cc(Cl)ccc2n1CSc1nc2ccccc2s1 | 0.0
CCCC(=O)Nc1ccc2c(c1)nc1n2CCOC1 | 0.8
O=C(O)c1nc(Cl)c(Cl)c(N/N=C/c2ccccc2C(F)(F)F)c1Cl | -0.9
CC1(C)Oc2ccc3ccc(=O)oc3c2/C(=C/NCCO)C1=O | 0.5
O=C(COC(=O)c1cc(-c2cccs2)nn1-c1ccccc1)Nc1cccc([N+](=O)[O-])c1 | -0.2
COCc1c(C(=O)N/N=C/c2cccc3ccccc23)nnn1-c1nonc1N | 0.6
CC(C)/C(=N/Nc1ccccc1[N+](=O)[O-])c1ccccc1 | -0.5
COc1ccc([N+](=O)[O-])cc1NC(=O)c1cn(-c2ccc(Cl)cc2)c(=O)c2ccccc12 | -1.2
CCOCCCNC(=O)/C(C#N)=C/c1ccc(-c2ccc(S(=O)(=O)N3CCOCC3)cc2)o1 | 0.6
COc1cccc(Oc2ccc(C(F)(F)F)cc2N)c1 | -1.2
C=C(C)c1cccc(C(C)(C)NC(=O)Nc2ccccc2OCC)c1 | -1.4
O=C(CN1CCCCCC1)Nc1c(Cl)cc(Cl)cc1Cl | -22
COc1ccc(CNc2nc3nc(C)c(Cl)c(C)n3n2)cc1 | 0.2
COc1cc(OC)cc(-c2nnc(SCc3cccnc3)o2)c1 | 0.3
Cc1ccc(S(=O)(=O)CCC(=O)N2CCN(c3ccc([N+](=O)[O-])cc3)CC2)cc1 | 0.3
Cn1c(CNC(=O)c2ccccc2F)cc2ccccc21 | -0.4
COc1cccc(/C=N/NC(=O)CN2CC(c3ccccc3)CC2=O)c1OC (configuration not stated) | -1.5
CC1SCC(=O)N(CC(=O)NCCc2ccccc2)C1=O (configuration not stated) | -1.6
O=C(Nc1ccc(Cl)cn1)c1cccc(OCc2ccccc2)c1 | -2.3
O=C(Nc1ccc(S(=O)(=O)NCCc2ccccc2)cc1)c1ccncc1 | -0.8

# (listing goes on)
smiles | STK33 kinase inh
CN1C(=O)CC(C(=O)O)SC1=Nc1cccc(C(F)(F)F)c1 (configuration not stated) | -1.9
CCOc1cc(/C=N/NC(=S)Nc2ccccc2C(F)(F)F)ccc1OCC(=O)N1CCOCC1 | 0.5
O=C(Nc1ccccn1)c1ccco1 | -0.7
Cc1ccc(S(=O)(=O)Oc2cc(N)c3c(n2)CCC3)cc1 | -1.4
CCOc1ccc(C(=O)OCC(=O)N2CCCC2)cc1OCC | -1.6
COc1cc(OC)c(C(=O)Nc2ccc3ccccc3c2)cc1OC | 1.1
O=C1CN(S(=O)(=O)c2ccccc2)CCN1S(=O)(=O)c1ccccc1 | -1.6
COc1ccc(CC(NC(C)=O)C(=O)NC2CCN(c3nnnn3-c3ccccc3)CC2)cc1OC (configuration not stated) | -2.2
CN(C)S(=O)(=O)c1ccc(C(=O)NNc2nc(-c3ccccc3)c3cc(Br)ccc3n2)cc1 | -0.9
COc1ccc(CCc2cc(OC)cc(=O)o2)cc1 | -0.9
COC(=O)CNc1n[nH]c(=S)[nH]c1=O | 0.0
CCn1ncc(CN2CCCC(C(=O)Nc3cccc(-c4cc5ccccc5[nH]4)c3)C2)c1C (configuration not stated) | 0.3
CSc1ccccc1NC(=O)C1CCN(S(C)(=O)=O)CC1 | -0.9
Cc1cc(CN(C)Cc2cn(C)nc2-c2ccc(Oc3ccccc3)cc2)on1 | -1.0
CCOC(=O)/C(C#N)=C/c1cn(CCC(=O)O)nc1-c1ccc(OC)cc1 | -0.9
CCNC(=O)C12CCC(C)(C(=O)O1)C2(C)C (configuration not stated) | -2.7
CC(C)C1CC(CCNCc2ccc3c(c2)OCO3)(c2ccccc2)CCO1 (configuration not stated) | -0.5
CCOC(=O)c1ccc(S(=O)(=O)N2CC(=O)Nc3ccccc32)cc1 | 0.0
O=C(Cn1nc(C(F)(F)F)c2c1CCC2)NC1CCCCC1 | 0.1
C=CCn1cccc(C(=O)Nc2ccc(N(C)C)cc2)c1=O | -0.7
Cc1ccc(CN2CCN(C3CCOCC3)CC2CCO)cc1 (configuration not stated) | -0.6
CC(C)Oc1ccc(OCCNC2CCCC2)cc1 | -0.7
CCOc1ccccc1CN1C(=O)NC(C)(c2ccccc2)C1=O (configuration not stated) | -1.1
C/C(Cc1ccccc1)=N\NC(=O)CNC(=O)c1cccc(Br)c1 | -1.0
O=C(NCc1ccccc1)c1csc(-c2cccnc2)n1 | 20
OCC[C@H]1C[C@@H](O)[C@H](O)[C@]2(Cc3ccccc3O2)O1 | -0.1
Cc1cccc(C(=O)NNS(=O)(=O)c2ccc(F)cc2)c1 | 0.1
N#CCc1nc(C(c2ccccc2)c2ccccc2)no1 | -1.3
COc1ccc(NC(=O)CS(=O)(=O)Cc2nc(-c3ccc(C)cc3)oc2C)cc1 | -0.2
S=C(Nc1ccc(Cl)cc1Cl)NC1CCN(Cc2ccccc2)CC1 | -2.5

# Look-ups from the entries so far:
# Under STK33 kinase inh, CCOc1ccccc1CN1C(=O)NC(C)(c2ccccc2)C1=O (configuration not stated) shows -1.1
# Under STK33 kinase inh, O=C(NCc1ccccc1)c1csc(-c2cccnc2)n1 shows 20

# 4 of the compounds above, as labelled records.
OCC[C@H]1C[C@@H](O)[C@H](O)[C@]2(Cc3ccccc3O2)O1
  STK33 kinase inh = -0.1
Cc1cccc(C(=O)NNS(=O)(=O)c2ccc(F)cc2)c1
  STK33 kinase inh = 0.1
N#CCc1nc(C(c2ccccc2)c2ccccc2)no1
  STK33 kinase inh = -1.3
COc1ccc(NC(=O)CS(=O)(=O)Cc2nc(-c3ccc(C)cc3)oc2C)cc1
  STK33 kinase inh = -0.2

# Carrying on:
smiles | STK33 kinase inh
CCOC(=O)C1CCCN(C(=O)c2ccco2)C1 (configuration not stated) | 0.5
O=C(Nc1ccc(Cl)cn1)c1ccccc1SCc1ccccc1 | -2.0
Nc1nnc(SCc2cccnc2)s1 | 0.7
COc1cccc(-c2[nH]nc3c2C(c2ccsc2)C(C#N)=C(N)O3)c1 (configuration not stated) | 1.2
CCOC(=O)[C@H]1[C@H]2COc3cc(OC)ccc3[C@@H]2N2C(=O)c3ccc(C)cc3NC(=O)[C@@]12C | -0.3
Cc1cc(NC(=O)CSc2nc(CC(C)(C)C)nc3c2c(=O)n(C)c(=O)n3C)no1 | -1.2
CCNC(=O)NC(=O)COC(=O)CCCSc1nc2ccccc2[nH]1 | -1.1
CC(C)NC(=O)c1onc(CSc2ccccc2F)c1C(=O)O | -0.5
O=C(COc1ncnc2sccc12)N1CCN(C(=O)c2ccco2)CC1 | -0.5
O=c1oc(-c2ccc(Br)o2)nc2ccccc12 | 2.4
Cc1ccc2c(c1)C(=O)CCN2 | -0.2
Cc1c(O)ccc(C(=O)CN2CCN(c3ccc(F)cc3)CC2)c1O | -0.4
O=Cc1cc(CCC(=O)O)ccc1O | -0.1
O=C(CNS(=O)(=O)c1ccc(F)cc1)Nc1ccccc1 | 0.9
O=C(c1ccccc1)N1CCN(S(=O)(=O)c2cccs2)CC1 | -0.7
O=C(NNc1nc2c(F)cc(F)cc2s1)C1=COCCO1 | -0.5
CN1CCN(C(=O)CN(C)S(=O)(=O)c2cc(Cl)ccc2Cl)CC1 | -1.0
CC(C)c1ccc(NNC(=O)C2CCC2)cc1 | -1.1
Cc1ccc(S(=O)(=O)/N=C(\N)Nc2nc(C)c3ccccc3n2)cc1 | -1.6
COc1ccc(N2CCN(C(c3cc4cc(C)ccc4[nH]c3=O)c3nnnn3Cc3ccccc3)CC2)cc1 (configuration not stated) | -0.4
CCCS(=O)(=O)N1CCN(C(=O)COc2ccc(-c3ccccc3)cc2)CC1 | -2.5
CCc1ccccc1NC(=O)C1CCN(C(=O)c2cccs2)CC1 | -1.1
CCN(CC(=O)NC(C)C)C(=O)C(CCSC)NC(=O)c1cccc(C)c1 (configuration not stated) | 1.0
O=C(NCCCNCc1ccccc1)c1ccncc1 | -0.8
Cn1cccc1Cc1nnc(SCC(=O)N2CCCCCC2)n1-c1ccc(F)cc1 | 1.2
COc1ccccc1-n1cc(-c2ccc([N+](=O)[O-])cc2)[nH]c1=S | -0.5
COc1cccc(CNC(=O)C2CCN(S(=O)(=O)N3CCCCC3)CC2)c1 | -0.9
CCc1cccc(C)c1NC(=O)C1CCN(C(=O)c2ccc([N+](=O)[O-])cc2)CC1 | -1.3
Cc1cccn2c(=O)c3cc(C(=O)N4CCOCC4)n(C)c3nc12 | -1.2
O=C(CSc1nnc(CNC(=O)c2ccccc2F)o1)Nc1ccc2c(c1)OCCO2 | 0.5
O=C(Cc1cccc2ccccc12)N1CCN(c2ncccn2)CC1 | -1.5
CC1CCCCN1S(=O)(=O)c1cn(C)c(=O)n(C)c1=O (configuration not stated) | 0.4
Cc1ccc(-n2ncc(C(=O)NC3CC3)c2C2CCN(C(=O)OC(C)(C)C)CC2)cc1 | 0.7
COc1cccc(CN2C(=O)NC3(CCCCCC3)C2=O)c1 | 0.1
O=C(CSc1n[nH]c(=O)n1Cc1ccccc1)Nc1ccc(F)c(F)c1F | -1.8
COC(=O)CNC(=O)c1cc(-c2ccncc2)nc2ccccc12 | -0.9
Cc1cccc(NC(=O)c2cc3ccccc3c(=O)o2)n1 | 0.5
COc1ccc(C(=O)Nn2c(SCC(=O)NCc3ccccc3)nc3ccccc3c2=O)cc1 | -1.4
CC(=O)N/C(=C\c1ccc(F)cc1)C(=O)OC(C)C | -0.5
O=C1NCC(=O)N2C(c3ccccc3)c3[nH]c4ccccc4c3C[C@@H]12 (some centres not stated) | 2.1
COc1ccc(C/C(C)=N/NC(=S)Nc2ccc(C)c(C)c2)cc1 | -0.8
Cc1ccc(Cn2c(CCNc3nc(-c4ccc(C)cc4)cs3)nc3cc(C(=O)NCCCO)ccc32)cc1 | 0.7
Cc1ccc(NC(=O)CCOc2ccccc2)c(C)c1 | -1.6
CCOc1ccc(NC(=O)c2ccccc2C(=O)c2ccccc2)cc1OCC | -0.3
Cn1nc(C(=O)NCc2ccccc2)c2ccccc2c1=O | 0.2
